Assay outcomes (PubChem BioAssay)
Mtb betalactam: beta-lactam sensitization of Mtb H37Rv; 0.27% of 330,000 active; M. tuberculosis H37Rv growth with meropenem, percent inhibition; hits of this screen are not shown here; inhibition, % at 25 µM;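 active means about 74% or more and at least 40 points above the plate without the antibiotic, then above 30% in a dose series; inconclusive means first-round hits that could not be retested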;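 further: growth measured after seven days incubation then overnight dye step; 0% = bacteria only wells and 100% = bacteria with antibiotic; twin plates without the antibiotic show which effects depend on it; some results filed as inactive read as strong as hits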
RecA intein inh: Mtb RecA intein splicing inhibition; cell-free RecA intein splicing, fluorescence; inhibition, %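 (about 9 µM by stock and volumes)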; P9WHJ3; 0.75% of 290,000 active; in the data active means inhibition above about 30%; inconclusive means no clear call, values can overlap the other calls;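 further: 0% = vehicle wells and 100% = reference inhibitor control wells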
Target sequence (P9WHJ3 whole entry, looked up): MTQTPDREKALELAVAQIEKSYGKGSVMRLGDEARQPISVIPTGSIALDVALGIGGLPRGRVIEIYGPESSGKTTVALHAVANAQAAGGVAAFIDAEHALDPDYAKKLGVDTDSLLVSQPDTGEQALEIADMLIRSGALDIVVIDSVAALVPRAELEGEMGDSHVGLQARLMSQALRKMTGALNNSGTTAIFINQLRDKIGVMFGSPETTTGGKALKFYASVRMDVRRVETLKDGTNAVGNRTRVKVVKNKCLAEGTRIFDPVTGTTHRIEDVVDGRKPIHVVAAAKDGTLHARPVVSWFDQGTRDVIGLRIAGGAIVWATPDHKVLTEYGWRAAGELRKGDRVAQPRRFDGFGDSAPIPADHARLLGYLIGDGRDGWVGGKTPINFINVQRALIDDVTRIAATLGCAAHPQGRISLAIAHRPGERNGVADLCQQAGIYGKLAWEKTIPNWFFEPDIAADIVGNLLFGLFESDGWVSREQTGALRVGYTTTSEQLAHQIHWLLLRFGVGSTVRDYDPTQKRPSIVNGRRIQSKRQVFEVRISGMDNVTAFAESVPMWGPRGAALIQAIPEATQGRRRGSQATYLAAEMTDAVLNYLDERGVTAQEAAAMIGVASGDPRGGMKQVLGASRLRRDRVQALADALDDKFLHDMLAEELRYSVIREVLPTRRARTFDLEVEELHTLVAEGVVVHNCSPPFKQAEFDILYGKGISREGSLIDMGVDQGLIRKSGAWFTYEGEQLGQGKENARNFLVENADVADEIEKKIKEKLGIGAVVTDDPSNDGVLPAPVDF
Mtb growth: M. tuberculosis H37Rv growth inhibitors, H37Rv strain (AID 1626). 0.95% of 220,000 active. inhibition, % at 10 µM, or IC50 in µM where a hit was titrated. M. tuberculosis H37Rv growth inhibition; higher % means a stronger effect;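 active means confirmed in a dose series; inconclusive means inhibition above 80% but not taken into the dose series; inactive means below 80% or under 30% at every dose of the series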;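 further: bacteria incubated seven days before Alamar blue readout; 0% = bacteria only wells and 100% = bacteria with antibiotic wells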
Arbovirus inh: antivirals against arbovirus infection; arbovirus infection cell-based antiviral screen; inhibition, % at 10 µM; 0.37% of 200,000 active; AID 1251;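 active means inhibition from about 30%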;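 further: bluetongue infection of BSR cells; cell survival read as ATP light after 72 h; 0% = infected wells without compound and 100% = uninfected wells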
YopH PTP inh: inhibitors of Yersinia enterocolitica YopH tyrosine phosphatase. 0.16% of 140,000 active. fluorescence Ex485/Em525. inhibition, %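 (about 10 µM by stock and volumes)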;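 active means inhibition of 50% or more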;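 further: controls were vehicle for no effect and minimum signal wells for full effect; inactives centre near -20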
Arbovirus inh repeat: recorded beside Arbovirus inh, whose call it bears; inhibition, %; measured here: 10K subset replicate screen; many hits read low in the repeat;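 first of two repeat runs on a subset; 0% = infected and 100% = uninfected wells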
Numbers without * were called inactive; ? = inconclusive; . = not tested or not shown. A portion of the library. The share of hits here may be higher or lower than overall.

SMILES	Mtb betalactam	RecA intein inh	Mtb growth	Arbovirus inh	YopH PTP inh	others
CC(C)c1cc(CN2CCN(Cc3ccc(F)c(F)c3)C(CCO)C2)[nH]n1 (centres undefined)	-1	0.0	4%	-1	.
CN(C)c1nc(-c2ccccc2)[n+](C)s1	-10	0.0	4%	0	-14
COc1ccc(NC(=O)C2(c3ccc(NC(=O)c4ccc(C)cc4)cc3)CCCC2)cc1	6	-1.9	1%	-2	-31
CN1CCN(NC(=O)c2cccc(Br)c2)CC1	4	0.7	-2%	2	-17
CCC1=C2CC[C@H]3C(=O)NC(=O)[C@H]3[C@H]2[C@@]2(Cc3ccccc3)C(=NCC(=O)OC)OC(=O)N2C1=O	-9	.	-10%	.	.
CC1CN(Cc2cc(=O)[nH]c(C3CC3)n2)CC(C)O1 (centres undefined)	3	-4.5	-8%	-4	-39
CSCCC(=O)N1CCCC(N(C)CCc2ccccc2)C1 (centres undefined)	-3	-1.0	.	.	.
Nc1nonc1-n1nnc(C(=O)N/N=C/c2ccc(Cl)cc2Cl)c1CN1CCCC1	12	-2.7	.	.	.
COc1ccc(NC(=O)CCS(=O)(=O)c2ccc(OC)cc2)cc1	5	-1.8	-13%	0	3
C/C(=N/OC(=O)C1CC1c1ccccc1)c1ccccc1 (centres undefined)	0	-0.6	-8%	0	.
Cc1ccc(-c2nc(CSc3nc4ccccc4c(=O)n3C)cs2)cc1	-7	1.7	8%	8	-28
Cc1ccc(C(=O)N2CCN(c3ccccc3F)CC2)cc1NC1=NC2CS(=O)(=O)CC2S1 (centres undefined)	?	-0.4	.	.	.
CCCNS(=O)(=O)c1ccc(OC)c(Cl)c1Cl	2	0.2	2%	-4	-10
CCOc1ccc(N2C(=O)C3C4C=CC([C@H]5CC45)[C@@H]3C2=O)cc1 (some centres undefined)	4	-0.3	.	.	.
CC(=O)Nc1ccc(NC(=O)Cn2c(-c3ccc(F)cc3)cnc2SCC(=O)Nc2c(C)cccc2C)cc1	-9	-2.0	5%	-20	-27
COC(=O)c1ccccc1NC(=O)N1CCN(Cc2ccco2)CC1	6	-0.6	8%	-2	.
Cc1cc(=O)oc2c(C)c(OCC(=O)N3C[C@H]4C[C@@H](C3)c3cccc(=O)n3C4)ccc12	-7	-4.3	.	.	.
COCC(=O)N1CCC(Oc2ccc(C(=O)N3CCCCCCC3)cc2)CC1	-20	-1.6	.	.	.
CCC1=C(OC(=O)N(CC)CC)N2C(=O)OC(=NCC(=O)OC)[C@]2(Cc2ccccc2)[C@H]2C1=CC[C@H]1C(=O)N(CC(=O)OC)C(=O)[C@H]12	-5	3.7	-1%	.	.
CCOC(=O)c1ccc(Nc2cc(C)nc(-c3ccccc3O)n2)cc1	4	-0.5	10%	-3	-15	Arbovirus inh repeat=6
Cc1cc(C)n(-c2ccc(C(=O)OCC(=O)Nc3ccc(Cl)c(S(=O)(=O)N(C)C)c3)cc2)n1	63	1.4	-1%	-4	-6
CC(C)CNC(CC(=O)O)c1ccccc1 (centres undefined)	-3	0.9	-2%	-3	.
CCc1nn2cc(-c3ccccc3)nc2s1	2	0.7	-2%	-2	-24
Oc1ccc(-c2nc3ccccn3c2NCc2ccco2)cc1	18	-19	0%	-9	-1
Cc1cccc(NC(=O)CCN2CC(C)OC(C)C2)c1 (centres undefined)	-7	.	-1%	-3	-6
CC1(C)Cc2c(C#N)c(N3CCNCC3)nc(-c3ccco3)c2CS1	33	-4.9	1%	.	.
Cc1c(C(=O)Nc2c(N)nc(SCC(=O)NCC3CCCO3)[nH]c2=O)cccc1[N+](=O)[O-] (centres undefined)	-6	-1.7	.	.	.
CCNC(=S)N1CCn2cccc2C1c1ccc(F)cc1 (centres undefined)	-2	2.3	-2%	2	.
Cc1nn(C)cc1CN1CCC(n2nccc2NC(=O)CCCc2ccccc2)CC1	-3	0.0	.	.	.
CC1=[N+](C)N(c2ccccc2)C(=O)C1N=Cc1ccccc1Cl (centres undefined)	0	-9.9	-3%	-13	-17
FC(F)C(F)(F)c1cc(-c2ccc(Cl)cc2)n[nH]1	-4	.	12%	.	.
CCOC(=O)c1cccc(NC(=O)CCc2nc(-c3ccc(C)cc3)no2)c1	91	-3.3	30µM*	-3	-51
O=C(CSc1nc(-c2ccccc2)nc2c1Cc1ccccc1O2)Nc1ccc(C(=O)O)cc1	.	.	-2%	68*	.
NS(=O)(=O)c1cnccc1Nc1cccc(Br)c1	31	1.6	.	.	.
C/C(=N\NC(=O)Cc1c[nH]c2ccccc12)c1ccc2ccccc2c1	-7	0.8	4%	12	.
S=C1NC2(CCCCC2)Nc2ccccc21	-3	-28	0%	1	.
CC(=O)Nc1ccc(NC(=O)C(F)(F)F)cc1	-2	-1.0	14%	-2	-20
Cc1ccc(S(=O)(=O)c2nc(-c3ccco3)oc2NCC2CCCO2)cc1 (centres undefined)	-1	.	3%	-1	-21
CCN(CC)c1ccc(/C=N/NC(=O)Cc2nnc(NC(=O)Nc3ccccc3)s2)cc1	-5	-4.6	-6%	-11	-47
CCOC(=O)C1C(=O)C=C(/C=C/c2ccccc2)CC1c1ccc(Cl)cc1 (centres undefined)	65	1.8	-4%	-3	-78

Next section; it opens with the 5 that closed the last part.
SMILES	Mtb betalactam	RecA intein inh	Mtb growth	Arbovirus inh	YopH PTP inh	others
S=C1NC2(CCCCC2)Nc2ccccc21	-3	-28	0%	1	.
CC(=O)Nc1ccc(NC(=O)C(F)(F)F)cc1	-2	-1.0	14%	-2	-20
Cc1ccc(S(=O)(=O)c2nc(-c3ccco3)oc2NCC2CCCO2)cc1 (centres undefined)	-1	.	3%	-1	-21
CCN(CC)c1ccc(/C=N/NC(=O)Cc2nnc(NC(=O)Nc3ccccc3)s2)cc1	-5	-4.6	-6%	-11	-47
CCOC(=O)C1C(=O)C=C(/C=C/c2ccccc2)CC1c1ccc(Cl)cc1 (centres undefined)	65	1.8	-4%	-3	-78
O=C(NCC(=O)N1CCN(C(=O)c2ccco2)CC1)c1ccc(Cl)cc1	-12	-0.9	.	.	.
COc1ccc(CNC(=O)C(c2ccncc2)N(C(=O)Cc2cccs2)c2ccc(C)cc2)cc1 (centres undefined)	8	0.1	-3%	-11	-52
COc1cccc(-c2cc(N3C(=O)Nc4ccccc4N3O)n[nH]2)c1	-12	3.2	-4%	-4	-13
CC1CC(C)CN(CCCNC(=O)c2ccc3c(c2)ncn3C2CCCC2)C1 (centres undefined)	-8	5.0	.	.	.
COc1ccc(CNCc2cc3c(cc2[N+](=O)[O-])OCO3)cc1	7	-4.8	.	.	.
Cc1ccc(OCC(=O)NCc2cccs2)c([N+](=O)[O-])n1	-4	-2.0	9%	3	.
COc1ccc(C(N)c2nccc3cc(OC)c(OC)cc23)cc1OC (centres undefined)	20	92*	.	.	.
CC(OC(=O)c1ccccc1NCCO)C(=O)NCC(=O)Nc1ccc(F)c(F)c1F (centres undefined)	-24	-1.8	.	.	.
CC(C)c1ccc(C(C)NCCS(=O)(=O)c2ccc(Br)cc2)cc1 (centres undefined)	91	5.4	.	.	.
Cc1ccc(-n2c(C)c3c(C)nnc(C)c3c2C)cc1C	20	3.5	11%	-18	6
Cc1ccc(C(=O)NCC(C)(C)N2CCOCC2)s1	-6	-1.0	-4%	2	-1
COC(=O)c1ccc(Oc2coc3cc(OCc4ccc([N+](=O)[O-])cc4)ccc3c2=O)cc1	2	-0.2	4%	-8	-3
CCC(C(=O)OC)n1cnc2c(nnn2-c2ccc(OC)cc2)c1=O (centres undefined)	-8	-4.6	-6%	2	-36
Cc1ccc(C(=O)NCC(=O)N/N=C/c2sccc2C)cc1[N+](=O)[O-]	1	0.3	-1%	-7	.
Cc1ccc(C)c(N2CCN(C(=O)c3ccc(Cn4c(=S)[nH]c5ccc(N6CCOCC6)cc5c4=O)cc3)CC2)c1	64	0.1	42%	-6	.
c1ccc2oc(NC3=NCN(CC4CCCO4)CN3)nc2c1 (centres undefined)	52	-1.6	-3%	1	14
CCOC(=O)c1cc(-c2ccc(F)cc2)n(CC(=O)N2CCCC2)c1C	13	-0.8	6%	9	-31
Cc1ccc2nc(Cl)c(CNCc3ccccc3)cc2c1	57	0.1	5.6µM*	2	.
O=c1c2ccccc2nnn1-c1ccc(Br)cc1	2	-2.5	1%	.	.
N#Cc1cnn(-c2nc(SCc3ccccc3)nc3sc4c(c23)CCCC4)c1N	9	1.4	2%	2	-13
CCOC(=O)Cn1c(=O)c(-c2ccccc2N)nc2ccccc21	23	0.4	-5%	0	.	Arbovirus inh repeat=-1
Nc1ccc2cn[nH]c2c1	-1	78*	29%	-5	-18
CC(C)Cn1c([N+](=O)[O-])nc2c1c(=O)[nH]c(=O)n2C	100	16	.	.	.
CCOc1ccc(CCN2CN(CC)CNC2=S)cc1OCC	-1	0.5	-1%	0	.
COC(=O)C1CCN(c2nc3ccccc3nc2C(C#N)C(=O)OCC(C)C)CC1 (centres undefined)	3	-2.8	-8%	-1	-14
Fc1ccccc1COc1ccc(Br)cc1CNCc1cccnc1	2	-0.7	2%	6	.
COc1ccc(Cc2nnc(N/N=C/c3ccc(O)cc3)[nH]c2=O)cc1OC	93	-4.3	0%	-31	-31
COc1ccc(-c2cc(-c3ccccc3)c(C#N)c(SCC(=O)O)n2)cc1	1	3.9	.	.	.
COc1ccc2c(Cl)c(C(=O)N/N=C3\CCCC(=O)C3)sc2c1	8	2.6	?	-18	.
CCn1c(SCC(=O)Nc2cc(OC)c(OC)c(OC)c2)nnc1-c1cccs1	-6	.	2%	2	-24

4 records drawn at random from the list so far:
SMILES	Mtb betalactam	RecA intein inh	Mtb growth	Arbovirus inh	YopH PTP inh	others
Fc1ccccc1COc1ccc(Br)cc1CNCc1cccnc1	2	-0.7	2%	6	.
CCn1c(SCC(=O)Nc2cc(OC)c(OC)c(OC)c2)nnc1-c1cccs1	-6	.	2%	2	-24
CCOC(=O)Cn1c(=O)c(-c2ccccc2N)nc2ccccc21	23	0.4	-5%	0	.	Arbovirus inh repeat=-1
CC(C)Cn1c([N+](=O)[O-])nc2c1c(=O)[nH]c(=O)n2C	100	16	.	.	.

The results go on:
SMILES	Mtb betalactam	RecA intein inh	Mtb growth	Arbovirus inh	YopH PTP inh	others
CCN(CC)CCN=Cc1c(O)n(Cc2ccco2)c(=O)[nH]c1=O	-2	-1.2	-9%	.	.
Cc1cc(=O)[nH]c(SCC(=O)N2CCc3ccccc3C2)n1	.	-0.4	-7%	5	-57
COCCNC(=O)CN(Cc1ccc2c(c1)OCO2)C(=O)CCC(=O)Nc1nccs1	-2	-4.1	-6%	4	-36
C=CCNC(=O)C1CC2Cn3c(nc4ccccc43)C2N1C (centres undefined)	-3	-1.3	-5%	.	.
CCOc1ccc(S(=O)(=O)N2CCN(C(=O)CN3C(=O)NC4(CCCC4)C3=O)CC2)cc1	-7	0.0	.	.	.
O=C(NCc1cccs1)c1ccc2c(c1)OCCO2	7	-2.3	7%	-3	-37
CC(C)(C)c1ccc(OCCC(=O)OCC(=O)Nc2cccnc2Cl)cc1	2	-1.0	.	.	.
Cc1sc2nc(-c3ccccc3)oc(=O)c2c1C	79	-3.9	49%	6	.
Cc1n[nH]c(C)c1CCN(C)Cc1cn(C)nc1-c1ccccc1F	-15	-0.4	-4%	2	.
Cc1cc(N/N=C/c2c(O)ccc3ccccc23)nc(-c2ccccc2O)n1	11	-20	27%	19	-20
Cc1ccccc1-c1nc2sc3c(c2c(=O)n1N)CCCC3	0	1.1	-17%	-20	16
C=CCOc1cccc(C2/C(=C(/O)c3ccccc3)C(=O)C(=O)N2CCN2CCOCC2)c1 (centres undefined)	-1	2.2	-10%	0	-49
O=C(COc1ccc([N+](=O)[O-])cc1)Nc1ccc(N2CCN(C(=O)c3ccco3)CC2)cc1	0	1.1	.	.	.
CCn1c(-c2cc(-c3cccc(OC)c3)nc3ccccc23)n[nH]c1=S	-6	4.1	2%	-23	-21
Oc1ccccc1/C=N/NP(=S)(c1ccccc1)c1ccccc1	3	12	-3%	19	.
C=CCc1cccc(/C=N/c2ncccc2O)c1O	4	0.0	-10%	0	-51
CNC(=O)NC(=O)CSc1nnc(-c2ccc(F)cc2)n1CC1CCCO1 (centres undefined)	3	-0.8	-10%	0	.
c1cncc(-c2nc3cc4ccccc4cc3[nH]2)c1	91	-0.8	4%	-14	-50
Cc1nn(C(C)CC(=O)O)c(C)c1Br (centres undefined)	5	-1.3	-9%	5	-6
CCOC(=O)c1cnc2nc(C(F)(F)F)[nH]n2c1=O	2	-0.6	-4%	1	-23
Cc1cc(C(F)F)nn1CC(=O)NCc1ccc(Cl)cc1Cl	2	3.6	-8%	2	-12
O=C(NNC(=S)NCc1ccccc1)c1ccc2c(c1)OCO2	-3	2.9	0%	-32	-25
O=C(c1ccco1)N1CCN(S(=O)(=O)c2ccc(F)cc2)CC1	-3	0.1	-8%	6	-21
CCC(NC(=O)NC1=NCCS1)(C(F)(F)F)C(F)(F)F	-2	0.1	4%	4	1
